# RanGTP-Imp inh: disruptors of Ran-importin-beta complex formation – biochemical, FRET, CFP-Ran, YFP-importin-beta, homogeneous, primary screen; inhibition, % (no concentration beside the values); cell-free CFP-Ran/YFP-importin-beta FRET ratio; hit rate 1.1% among 300,000; AID 2216;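 active = most replicates above 15%; inconclusive = exactly half above 15%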;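 note: 0% = DMSO wells and 100% = Ran loaded with GDP instead of GTP; wells of about 40 µL received 100 nL stock; the first replicate is given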
# B2AR ag: agonists of human beta-2 adrenergic receptor inducing internalization. P07550. Am2.2-beta2AR cells, FAP receptor internalization, flow cytometry; reference of the scale not given here. response, % (concentration not given with the values). hit rate 0.43% among 340,000. AID 504454;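 active = response above a set limit, near 3 SD of response in nonfluorescent compounds, cut at about 42% in these data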;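 note: stock transfer was 100 nL into about 11 µL; a reference agonist was the positive control; negative values mostly stem from fluorescent compounds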
# Target sequence (P07550 whole entry, looked up): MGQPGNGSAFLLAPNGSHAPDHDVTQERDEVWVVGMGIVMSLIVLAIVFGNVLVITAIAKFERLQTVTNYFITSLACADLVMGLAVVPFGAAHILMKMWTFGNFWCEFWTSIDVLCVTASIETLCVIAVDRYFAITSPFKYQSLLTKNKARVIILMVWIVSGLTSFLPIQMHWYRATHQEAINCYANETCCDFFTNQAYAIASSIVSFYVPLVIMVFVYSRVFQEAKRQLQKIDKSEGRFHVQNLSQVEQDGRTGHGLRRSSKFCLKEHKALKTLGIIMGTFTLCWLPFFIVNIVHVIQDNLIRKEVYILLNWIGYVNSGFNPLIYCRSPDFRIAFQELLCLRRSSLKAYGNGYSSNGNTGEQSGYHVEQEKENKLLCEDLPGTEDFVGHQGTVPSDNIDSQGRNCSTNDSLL
# T cruzi inh: T. cruzi replication inhibition; T. cruzi beta-gal in NIH3T3, luminescence, 90 h; inhibition, % (test concentration not listed); hit rate 1.4% among 300,000;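 active = mean inhibition across valid replicates above about 55%, limit read from the data; inconclusive = mean below that limit but half or more replicates reach it; inactive = mean below it, under half of replicates reach it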;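 note: signal also drops with host cell toxicity which is not excluded here; 0% = plate median of DMSO wells and 100% = zero luminescence signal; higher percent means less beta-gal luminescence so fewer parasites; stock transfer was 50 nL into about 50 µL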
# Bfl-1 A1 inh: inhibitors of the anti-apoptotic protein A1, read as caspase activation; MEF A1-2A-BIM cells, Caspase-Glo 3/7 luminescence, 3 h; percent of clofoctol response, vehicle zero; caspase activation, % (concentration not given with the values); hit rate 0.066% among 330,000;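 active = over half of replicate activation scores above 10%, or exactly half above 10 with the replicate mean above 10; inconclusive = replicate mean below 10 yet half the replicates above 10; inactive = over half of replicates below 10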;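 note: wells of about 30 µL received 50 nL stock; many hits fall short of the cut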
# UCH37 inh: blocks the human deubiquitinase UCH37. inhibition, % (no concentration beside the values). hit rate 0.33% among 330,000. Q9Y5K5. purified proteasome/UCH37, Ub-AMC cleavage fluorescence;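 active = mean of two replicates above 20%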;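 note: 0% = compound-free wells with enzyme and 100% = wells lacking proteasome; stock transfer was 100 nL into about 20 µL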
# Target sequence (Q9Y5K5 whole entry, looked up): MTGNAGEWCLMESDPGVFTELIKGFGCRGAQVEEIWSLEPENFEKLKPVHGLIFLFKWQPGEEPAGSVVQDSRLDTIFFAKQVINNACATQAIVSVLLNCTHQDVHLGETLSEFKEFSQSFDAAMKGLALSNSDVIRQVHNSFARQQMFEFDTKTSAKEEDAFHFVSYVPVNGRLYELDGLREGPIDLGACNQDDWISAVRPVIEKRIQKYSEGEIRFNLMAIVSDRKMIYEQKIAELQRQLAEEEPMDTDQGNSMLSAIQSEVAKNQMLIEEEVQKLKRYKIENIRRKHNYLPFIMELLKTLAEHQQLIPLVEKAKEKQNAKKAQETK
#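 Signal – fluorescence, ex 355 nm, em 460 nm · System – Proteasome-bound UCH37 · Input – 0.15 nM proteasome as dispensed · Timing – 30 min preincubation with enzyme, 25 min cleavage at room temperature · Read-out basis – percent inhibition of cleavage signal versus uninhibited and no-proteasome wells · Medium – Tris-HCl pH 7.4 with ATP-MgCl2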
# LANA-H2A inh: blocks KSHV LANA binding to histone H2A/H2B; AID 2629; Q9QR71; hit rate 0.6% among 320,000; cell-free LANA-H2A/H2B peptide, fluorescence polarization; inhibition, % (concentration not given with the values); in the data active = inhibition mostly above about 10%, no sharp cut-off; inactive = mostly below about 6.7%;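 note: stock transfer was 7.5 nL into about 10 µL; 0% = median of vehicle wells and 100% = median of positive control wells; one replicate is shown; the record names a cut of 25% in any replicate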
# Calb FLC: C. albicans growth modulation with fluconazole | C. albicans CaCi-2 (fluconazole-resistant clinical isolate) + fluconazole, Alamar Blue growth, 48 h | growth inhibition, % (concentration not given with the values) | hit rate 0.57% among 300,000;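 active = most replicates above 75%; inconclusive = exactly half above 75%; inactive = most below 75%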;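 note: all wells also contain fluconazole at 8 µg/ml as a sub-toxic cotreatment; 0% = median of DMSO wells and 100% = median of geldanamycin control wells; wells of about 8 µL received 7.5 nL stock; the first replicate is given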
# Beta apoptosis: beta cell apoptosis inhibition; INS-1E cytokine-induced death, ATP luminescence, 48 h; percent of positive-control rescue, neutral wells zero; protection from apoptosis, % (concentration not given with the values); hit rate 0.8% among 300,000; AID 435005;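 active = all replicates at 75% or more, or half of them and the mean; inconclusive = half reach 75% but not the mean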;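 note: 0% = cytokine-treated negative control wells and 100% = positive control rescue; higher means more ATP so stronger rescue from cytokine killing; wells of about 40 µL received 100 nL stock; the first replicate is given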
# Starred values were filed as active, the others as inactive; u = inconclusive; x = no result given.
SMILES,RanGTP-Imp inh,B2AR ag,T cruzi inh,Bfl-1 A1 inh,UCH37 inh,LANA-H2A inh,Calb FLC,Beta apoptosis
COc1ccc(NC(=O)c2ccccc2)cc1NS(=O)(=O)c1ccc(F)cc1,1.2,26,3,0.4,2.8,-5.3,0,0
CC1=CC(C)(C)NC(=S)N1c1ccc(C)c(C)c1,-0.9,-1,-29,0.3,3.7,2.6,-4,1
CC(=O)OCC1OC(OC(C)=O)C(NC(=O)Cc2ccccc2)C(OC(C)=O)C1OC(C)=O (stereo unspecified),3.8,-3,-2,1.8,1.1,7.4,5,-9
C=CCc1ccccc1OCC(O)CNC1CCCC1 (stereo unspecified),-1.3,-15,-15,-0.5,4.3,-3.2,-8,x
O=C(CN1C(=O)C2C3c4ccccc4C(c4ccccc43)C2C1=O)Nc1cccc(C(=O)O)c1 (stereo unspecified),2.2,2,-14,1.1,-1.0,1.9,-1,-2
Cc1ccc(C(=O)N/N=C/c2ccc([N+](=O)[O-])s2)cc1,0.6,29,58*,0.4,x,1.6,-4,-56
Nc1ccc(SC(F)(F)F)cc1,1.8,11,-15,0.2,1.5,x,-10,-3
COc1cc(OC)cc(C(=O)OCC(=O)Nc2sccc2C(N)=O)c1,-0.6,2,1,0.4,1.5,-4.3,50,2
COc1ccccc1OCC(=O)NNc1c2ccccc2nc2ccccc12,u,12,32,0.7,5.0,-1.1,13,8
c1ccc(CSc2nnc(-c3c[nH]c4ccccc34)o2)cc1,6.1,2,21,0.0,1.9,0.8,3,x
O=C(COc1ccc(Cl)cc1)Nc1nnc(-c2ccco2)o1,-3.5,-3,8,-1.1,0.9,6.9,38,-3
Cc1ccc(-n2c(C)cc(/C=C(\C#N)C(=O)NCC3CCCO3)c2C)cc1 (stereo unspecified),5.2,2,19,-0.8,3.5,-1.0,-24,-11
O=C1COc2ccc(C(=O)COC(=O)/C=C/c3ccco3)cc2N1,x,5,x,0.6,1.9,15,x,5
COc1ccccc1C(=O)c1nc2ccccc2n1C,2.7,-16,2,1.1,7.7,-0.8,5,-13
CCOC(=O)c1csc(-c2ccc3c(c2)CCO3)n1,-1.8,3,5,1.5,1.0,0.9,-4,0
COc1ccc(/C=C2\SC(=O)N(CCNC(=O)C3CCN(S(=O)(=O)c4cccs4)CC3)C2=O)cc1,-0.3,-5,10,-2.0,-1.9,0.5,-9,1
O=C(COC(=O)/C=C/C(=O)N1CCN(c2ccccc2)CC1)NC(c1ccccc1)c1ccccc1,1.5,9,-8,-0.6,3.4,-10,-13,-7
CC(C)(C)[C@H]1C=C(C(=O)N2CCN(Cc3ccc4c(c3)OCO4)CC2)O[C@@H](OCc2ccc(CO)cc2)C1,4.2,-5,46,0.4,4.0,-4.1,-5,-8
COc1ccc(NC(=O)C2C3C=CC4(O3)C2C(=O)N(CCN2CCCCC2)C4C(=O)NC2CCCC(C)C2C)cc1 (stereo unspecified),3.5,-8,-3,-1.8,3.0,-7.2,32,5
O=C(c1cnn2c(C(F)F)cc(-c3ccccc3)nc12)N1CCSCC1,1.7,-12,21,-0.7,-3.9,0.7,-8,-11
CC(C)CC(=O)Nc1nnc(CSCc2ccc(F)cc2)s1,4.6,1,9,-1.1,3.8,-0.3,4,-17
O=C(CN1C(=O)NC2(CCCc3ccccc32)C1=O)NCC(F)(F)F (stereo unspecified),-3.4,2,-16,-0.2,3.8,7.5,-15,2
COCC(C)n1c(C)cc(C(=O)COC(=O)c2n[nH]c3ccccc23)c1C (stereo unspecified),-0.6,4,-3,-3.5,3.6,-3.6,3,-2
O=C(NCc1ccco1)c1ccc(CN2CCOCC2)cc1,-3.7,7,-6,0.1,0.3,3.2,39,-2
O=c1ccc(Br)c[nH]1,-1.6,3,2,0.2,4.6,1.5,-1,x
Cc1ccccc1Nc1nnc(SCC2CCCCO2)s1 (stereo unspecified),-0.1,1,12,-8.0,3.3,2.4,2,-4
COC(=O)c1ccc(COC(=O)CCS(=O)(=O)c2ccc(C)cc2)cc1,2.3,-6,-10,0.3,3.8,2.8,u,0
O=C(Nc1ccc(Nc2ccccc2)cc1)Nc1ccccc1Cl,4.3,17,4,-4.1,1.7,-7.5,8,10
Cc1cc(-c2nnc(CCC(=O)NCc3cc(F)cc(C(F)(F)F)c3)o2)no1,0.9,0,9,0.8,5.0,-0.9,3,1
COc1cccc(-c2cc(C(=O)NCCc3ccccc3)no2)c1,5.7,4,1,-2.5,4.2,-0.6,-3,-5
CCCCNC1CCS(=O)(=O)C1 (stereo unspecified),0.6,4,-9,-0.3,0.7,-1.7,-2,-2
COc1cccc2sc(N3CCN(C(=O)c4cccs4)CC3)nc12,0.0,4,-8,0.1,4.9,0.4,1,4
O=C(Oc1ccc(-n2cnnn2)cc1)c1ccccc1,0.6,9,-4,0.6,3.3,2.9,1,-3
O=C(NCc1ccco1)c1cc2ccccc2c(=O)o1,u,-1,-21,-0.9,-0.9,2.2,-4,5
CCN(CC)S(=O)(=O)c1ccc(N2CCN(C)CC2)c(NC(=O)c2cc(=O)c3ccccc3o2)c1,1.0,5,13,0.1,2.1,1.8,2,5
O=C1N(CN2CCN(Cc3ccccc3)CC2)c2ccccc2C12OCCCO2,-2.5,-2,-8,-0.4,6.1,7.8,-1,-7

# Rewritten with tabs: entries from further up.
canonical_smiles	RanGTP-Imp inh	B2AR ag	T cruzi inh	Bfl-1 A1 inh	UCH37 inh	LANA-H2A inh	Calb FLC	Beta apoptosis
COc1ccc(NC(=O)c2ccccc2)cc1NS(=O)(=O)c1ccc(F)cc1	1.2	26	3	0.4	2.8	-5.3	0	0
CC1=CC(C)(C)NC(=S)N1c1ccc(C)c(C)c1	-0.9	-1	-29	0.3	3.7	2.6	-4	1
CC(=O)OCC1OC(OC(C)=O)C(NC(=O)Cc2ccccc2)C(OC(C)=O)C1OC(C)=O (stereo unspecified)	3.8	-3	-2	1.8	1.1	7.4	5	-9
C=CCc1ccccc1OCC(O)CNC1CCCC1 (stereo unspecified)	-1.3	-15	-15	-0.5	4.3	-3.2	-8	x
O=C(CN1C(=O)C2C3c4ccccc4C(c4ccccc43)C2C1=O)Nc1cccc(C(=O)O)c1 (stereo unspecified)	2.2	2	-14	1.1	-1.0	1.9	-1	-2
Cc1ccc(C(=O)N/N=C/c2ccc([N+](=O)[O-])s2)cc1	0.6	29	58*	0.4	x	1.6	-4	-56
Nc1ccc(SC(F)(F)F)cc1	1.8	11	-15	0.2	1.5	x	-10	-3
COc1cc(OC)cc(C(=O)OCC(=O)Nc2sccc2C(N)=O)c1	-0.6	2	1	0.4	1.5	-4.3	50	2
COc1ccccc1OCC(=O)NNc1c2ccccc2nc2ccccc12	u	12	32	0.7	5.0	-1.1	13	8

# Additional entries follow.
SMILES,RanGTP-Imp inh,B2AR ag,T cruzi inh,Bfl-1 A1 inh,UCH37 inh,LANA-H2A inh,Calb FLC,Beta apoptosis
O=C(Nc1ccc2c(c1)OCO2)c1nn(-c2ccccc2)c(=O)c2ccccc12,1.1,2,12,0.8,3.2,0.7,17,5
C#Cc1ccc([C@H]2C=C(C(=O)NCc3ccccc3)O[C@@H](OCc3ccc(CO)cc3)C2)cc1,4.1,0,-1,-0.4,-0.5,2.1,12,-8
Cc1ccc(N2CN(CCC3=CCCCC3)CNC2=S)cc1,-4.1,-2,x,-0.1,1.6,0.5,3,4
NC(=O)c1ccc(C(=O)N/N=C/c2cccc(Oc3ccccc3)c2)cc1,-3.0,-11,2,-0.4,x,1.2,15,6
CCOC(=O)c1ccn(-c2nc(-c3ccco3)cc(C(F)(F)F)n2)n1,-1.4,4,1,0.4,-17,-2.2,1,0
COc1ccc(/C(CC2OC(=O)c3ccccc32)=N\NC(N)=O)cc1 (stereo unspecified),-0.9,-3,-9,-0.1,x,1.5,-3,0
O=C(Cn1nnc(-c2ccccc2Cl)n1)N1CCCCC1,1.1,-4,3,0.4,-1.9,2.8,-20,1
O=C1C2C3CC(C(Br)C3Br)C2C(=O)N1CC1CCCO1 (stereo unspecified),5.4,3,-13,0.2,0.9,-0.1,-3,x
C=CCOC(=O)C1=C(C)OC(N)=C(C#N)C1c1ccccc1F (stereo unspecified),1.3,6,-24,-0.7,2.0,1.8,-10,-1
COc1ccc(OC)c(NS(=O)(=O)c2ccc(NC(=O)c3ccc(NS(C)(=O)=O)cc3)cc2)c1,4.2,7,-31,0.2,x,1.8,19,-10
CNC(=S)Nc1ccccc1-c1ccccc1,-1.7,-8,-5,1.1,2.2,3.4,3,-5
CN(CC(=O)Nc1ccc(F)c(F)c1F)C(=O)C1CCN(C(=O)Nc2ccccc2)CC1,u,1,-10,0.5,-0.6,-9.8,-5,x
COc1ccc(NC(=O)c2cccc(S(=O)(=O)N(C)c3ccccc3)c2)cn1,2.3,-1,-4,-0.7,0.9,8.4,22,x
COc1ccc(C2C(C(C)=O)=C(O)C(=O)N2c2cccnc2)c(OC)c1 (stereo unspecified),u,7,6,-0.3,11,0.9,-5,-1
O=C(O)c1ccc(CNC(=O)C2CCCN2C(=O)OCc2ccccc2)cc1 (stereo unspecified),-0.8,2,-7,-0.7,-0.5,-0.5,-1,-4
COc1cccc(COC(=O)CSCC(=O)Nc2cccc(C)c2)c1OC,-0.8,-1,-15,1.1,2.8,2.5,-3,-1
O=C(Nc1ccncc1)c1cc2ccccc2o1,x,7,x,-0.4,6.3,-5.8,x,4
O=C(c1cc2nc(-c3cccs3)cc(C(F)(F)F)n2n1)N1CCCc2ccccc21,-0.5,23,22,0.3,-8.0,-0.7,1,2
Cc1ccc(S(=O)(=O)C2CCCCC2=O)cc1 (stereo unspecified),0.2,1,-8,0.3,4.1,-4.0,4,1
O=C(c1ccccc1Br)N1CCC(c2nc3ccccc3s2)CC1,x,4,9,0.6,3.0,1.9,-14,-5
O=C(N/N=C/c1cccnc1)c1ccccc1Cl,0.3,2,-13,-0.2,x,-4.1,-4,x
CC(C)(CNC(=O)CCC1CCCC1)CNC(=O)CCC1CCCC1,1.0,-8,13,0.1,5.6,1.3,1,-3
O=C(c1ccccc1)N1CCC(c2nc(-c3ccc(S(=O)(=O)N4CCOCC4)cc3)no2)CC1,-3.7,-5,-9,-0.7,1.2,0.5,6,8
O=C(O)c1cccc(-n2nc(-c3ccc(Cl)c([N+](=O)[O-])c3)c3ccccc3c2=O)c1,6.4,6,-11,1.2,x,1.7,6,4
O=C(Cc1ccccc1[N+](=O)[O-])N1CCN(S(=O)(=O)c2ccccc2)CC1,3.3,6,-7,0.5,0.4,1.0,3,-1
CSc1nc2ccc(S(=O)(=O)N3CCc4ccccc43)cc2s1,-1.0,-2,16,1.0,2.9,-1.2,-8,15
Cc1onc(-c2ccccc2Cl)c1C(=O)NC(=S)NCCc1ccccc1,-0.8,7,9,0.4,4.4,1.0,14,-5
Cn1nnc2cc(C(=O)N3CCCCCC3)ccc21,1.3,4,0,0.4,1.7,-1.2,-8,-14

# Hits appear at their usual frequency. About 4.3% of those tested had a hit in this group.
